B2AR ag: human beta-2 adrenergic receptor agonism by FAP | P07550 | Am2.2-beta2AR cells, FAP receptor internalization, flow cytometry; reference of the scale not given here | response, % (concentration not given with the values) | 0.43% of 340,000 active | AID 504454;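 active = response above a set limit, near 3 SD of response in nonfluorescent compounds, cut at about 42% in these data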;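 note: stock transfer was 100 nL into about 11 µL; a reference agonist was the positive control; negative values mostly stem from fluorescent compounds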
HNF4A DNA FP: change in binding of human HNF4 alpha to DNA | P41235 | HNF4a-FITC DNA binding, fluorescence polarization, 1 h | 0.3% of 360,000 active | activity change, % at 10 µM; in the data active = activity change above about 30%, passing the limit was not always enough;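 note: controls were the assay level and a saturating level of protein; the project sought stronger binding though the title names inhibitors; some compounds called inactive have numbers as strong as hits; positive values seem to mean higher polarization but the record does not say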
Target sequence (P41235 whole entry, looked up): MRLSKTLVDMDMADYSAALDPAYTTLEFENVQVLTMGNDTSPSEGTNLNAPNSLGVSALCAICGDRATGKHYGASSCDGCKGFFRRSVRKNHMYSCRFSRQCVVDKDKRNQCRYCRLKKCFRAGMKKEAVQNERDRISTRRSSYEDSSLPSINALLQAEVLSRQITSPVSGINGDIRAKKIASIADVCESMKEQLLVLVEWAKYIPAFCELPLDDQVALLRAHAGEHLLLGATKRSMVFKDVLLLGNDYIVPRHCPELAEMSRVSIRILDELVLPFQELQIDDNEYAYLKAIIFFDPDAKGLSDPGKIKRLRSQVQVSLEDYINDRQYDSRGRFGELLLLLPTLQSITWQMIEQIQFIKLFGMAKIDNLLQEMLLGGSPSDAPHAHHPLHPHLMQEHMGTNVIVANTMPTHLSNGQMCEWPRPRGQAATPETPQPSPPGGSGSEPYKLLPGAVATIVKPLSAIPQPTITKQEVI
E coli growth: E. coli growth inhibition; Escherichia coli growth, OD600, 23 h; stronger effect = lower value; OD600 absorbance (no concentration beside the values); 0.21% of 330,000 active;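 active = OD600 absorbance below the run mean of sample wells minus 3.6 SD, in any replicate, cut at about 0.56 in these data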;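 note: stock transfer was 300 nL into about 60 µL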
ALR inh: blocks human ALR sulfhydryl oxidase activity | inhibition, % (no concentration beside the values) | purified ALR, DTT oxidation, H2O2 HRP-luminol luminescence | 3.8% of 290,000 active | AID 485317 | P55789;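 active = mean and each replicate at 75% or more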;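 note: stock transfer was 7.5 nL into about 7.5 µL; 0% = neutral wells and 100% = wells with inactivated enzyme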
Target sequence (P55789 whole entry, looked up): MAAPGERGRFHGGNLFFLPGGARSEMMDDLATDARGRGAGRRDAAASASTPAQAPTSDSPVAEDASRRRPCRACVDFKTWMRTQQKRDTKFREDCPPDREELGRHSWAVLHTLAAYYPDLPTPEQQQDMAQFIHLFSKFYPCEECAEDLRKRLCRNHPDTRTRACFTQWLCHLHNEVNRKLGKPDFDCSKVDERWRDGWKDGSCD
FGF22 binding: shifts melting point of recombinant human FGF22; calls only at 9.99 µM; recombinant FGF22 thermal shift, SYPRO orange fluorescence; percent of sucrose octasulfate shift, DMSO zero; 1.5% of 340,000 active; Q9HCT0;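 active = melting point raised past a set limit in the mean and every replicate; three in four hits are not shown here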
LANA-H2A inh: blocks KSHV LANA binding to histone H2A/H2B | inhibition, % (test concentration not listed) | cell-free LANA-H2A/H2B peptide, fluorescence polarization | Q9QR71 | 0.6% of 320,000 active; in the data active = inhibition mostly above about 10%, no sharp cut-off; inactive = mostly below about 6.7%;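 note: stock transfer was 7.5 nL into about 10 µL; 0% = median of vehicle wells and 100% = median of positive control wells; one replicate is shown; the record names a cut of 25% in any replicate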
UCH37 DUB inh: inhibitors of human deubiquitinating enzyme UCH37 | Q9Y5K5 | purified proteasome/UCH37, Ub-AMC cleavage fluorescence | inhibition, % (test concentration not listed) | 0.33% of 330,000 active | AID 588478;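 active = mean of two replicates above 20%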;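 note: 0% = compound-free wells with enzyme and 100% = wells lacking proteasome; stock transfer was 100 nL into about 20 µL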
Target sequence (Q9Y5K5 whole entry, looked up): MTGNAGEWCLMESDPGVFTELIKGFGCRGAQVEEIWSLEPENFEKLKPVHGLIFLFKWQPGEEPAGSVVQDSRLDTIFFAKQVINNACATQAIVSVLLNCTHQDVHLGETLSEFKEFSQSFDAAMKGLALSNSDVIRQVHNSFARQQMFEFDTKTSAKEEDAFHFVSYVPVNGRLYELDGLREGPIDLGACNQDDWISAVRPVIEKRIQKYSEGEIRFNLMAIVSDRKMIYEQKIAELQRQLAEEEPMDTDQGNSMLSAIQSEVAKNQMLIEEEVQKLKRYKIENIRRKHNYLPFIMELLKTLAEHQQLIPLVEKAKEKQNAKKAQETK
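Material: Human UCH37 enzyme supplied as purified proteasome complex | Schedule: 30 min preincubation with enzyme, 25 min cleavage at room temperature | Detection: AMC fluorescence 355/460 nm | Measure: % inhibition of Ub-AMC cleavage fluorescence | Controls: Wells without proteasome as full block, compound-free enzyme plus substrate as uninhibited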
* = called active by the depositor; i = inactive; . = not tested or not shown; + = active, no number; & = joins results of further samples. Some of the compounds tested; rates above refer to the full screens.

Structure	B2AR ag	HNF4A DNA FP	E coli growth	ALR inh	FGF22 binding	LANA-H2A inh	UCH37 DUB inh
Cc1ccc(C(=O)N/C(=C\c2ccco2)C(=O)NCCN2CCOCC2)cc1C	0	0.0	0.74	-12	i	1.9	4.7
COc1cccc(NC(=S)Nc2cc(C(=O)O)ccc2N2CC3CC(C2)c2cccc(=O)n2C3)c1 (stereo unspecified)	1	-1.1	0.66	-49	+	-0.8	1.7
Cc1cccc(NC(=O)Nc2cc(C)on2)c1	-2	-3.9	0.68	0	.	-1.5	2.2
Cc1cc([N+](=O)[O-])nn1CC(=O)Nc1cccc2nonc12	-7	9.3	.	-29	i	-0.2	.
CC(=O)N1CCc2cc(S(=O)(=O)NCCC(=O)NC3CCCc4ccccc43)ccc21 (stereo unspecified)	3	-1.8	0.75	-6	.	2.8	-1.9
Cc1ccc2nc(-c3cccc(SC4CCCCC4)c3)c(NC3CCCCC3)n2c1	34	0.0&-1.9	0.75	.	i	.	-128
COc1ccc(CCN2CC(C(=O)NCC3(O)CCCCC3)CCC2=O)cc1 (stereo unspecified)	-6	13	0.66	1	i	1.5	2.1
Cc1nc2nc[nH]n2c(=O)c1NC(=O)c1c(-c2ccccc2Cl)noc1C	-3	-1.6	0.71	.	.	.	1.3
CC12CCC(c3c(C(=O)O)nn(-c4ccccc4)c31)C2(C)C (stereo unspecified)	3	2.4	0.69	-4	i	-8.6	2.5
CCC(C(=O)OCC(=O)Nc1ccc(OC)cc1OC)c1ccccc1 (stereo unspecified)	6	0.9	0.66	-2	.	-0.1	-0.4
c1cncc(-c2nc3ccccc3[nH]2)c1	-10	0.0	0.64	-14	.	7.0	2.0
O=c1c2ccccc2nc2n1CCC2	-7	6.5	0.62	1	.	-3.4	12
COc1ccc2nc3ccccc3nc2c1N	0	-1.2	0.66	99*	i	-2.9	10
COC(=O)[C@@H](Cc1c[nH]c2ccccc12)NC(=O)c1cc(=O)[nH]c2ccccc12	4	-2.0	0.69	-3	i	2.1	4.3
O=C(NC(=S)Nc1ccccn1)c1ccccc1	-3	2.1	.	.	i	-4.6	.
CCC(=O)Nc1cc(C(=O)OCC(=O)c2ccccc2Cl)ccc1C	-17	-1.5	0.67	-4	.	-0.2	2.3
CCOC(=O)Cn1cc(C(=O)C(=O)N2CCOCC2)c2ccccc21	2	-2.3	0.67	-1	i	-2.7	2.1
CCOC(=O)Nc1cc(C)c(Cl)cc1OC	7	3.3	0.68	-4	.	-2.5	1.0
O=[N+]([O-])c1ccc(-c2cn(-c3ccccc3F)c(=S)[nH]2)cc1	13	3.6	0.72	84*	.	-1.5	1.9
Cc1cccc2c1N(CCOc1ccccc1)C(=O)C2=O	-8	-1.2	0.72	15	i	-1.3	-0.7
CCn1c(SCC(=O)Nc2cc(OC)ccc2OC)nc2c(c1=O)SCC2	-8	0.8	0.7	-10	i	-4.7	3.9
CCCOc1ccc(-c2nnn(CC(=O)c3ccc4c(c3)OCCO4)n2)cc1	-5	-5.0	0.67	-9	i	-8.0	3.9
CCOc1ccc(C(CC(=O)O)NC(=O)Cc2ccccc2)cc1OC (stereo unspecified)	5	2.5	0.61	-24	i	4.7	0.6
Cc1ccc(SC[C@H](c2ccccc2)N2CCN(CC(C)C)CCC2=O)cc1	0	-1.9	.	.	.	.	5.5
O=C(N/N=C/c1ccc(-c2ccccc2[N+](=O)[O-])o1)c1cncc(Br)c1	-5	-2.0	.	18	.	4.9	.
COCCn1c(SCC(=O)Nc2cc(C)on2)nc2cc(Cl)ccc2c1=O	-1	-0.2	0.65	-2	i	-20	2.3
O=S(=O)(NCCc1csc(-c2cccnc2)n1)c1ccc(Cl)s1	-10	2.3	0.7	-7	i	-6.4	1.4
COc1ccc(NC(=O)Nc2ccc3oc(C)nc3c2)cc1	0	4.4	0.67	-6	i	5.8	1.5
COc1ccc(N2CCN(C(=O)c3ccc(Cl)c(S(=O)(=O)N4CCOCC4)c3)CC2)cc1	9	-2.1	0.73	.	i	.	5.5
COc1ccccc1OCCOCCOc1ccc(C)cc1[N+](=O)[O-]	-5	3.3	0.7	-19	i	-1.5	2.7
O=C(O)c1cccc2c1C(=O)c1ccc(-c3ccc(Cl)c(C(F)(F)F)c3)cc1S2(=O)=O	-3	2.5	0.73	60	.	-7.8	-5.8
N#CC1=C2SCN(c3ccccc3)CN2C(=O)CC1c1ccccc1Cl (stereo unspecified)	-14	-5.1	0.72	-9	i	-1.6	3.2
CCOC(=O)C1=C(COC(=O)/C=C/c2cccc(Br)c2)NC(=O)NC1C (stereo unspecified)	-2	1.5	0.7	1	i	-0.6	1.2
COc1cc2c(cc1NC(=O)C1CCCO1)oc1ccccc12 (stereo unspecified)	-2	-0.3	0.65	15	.	-9.2	0.7
Cc1ccc(S(=O)(=O)CCc2nnc(NC(=O)c3cnccn3)s2)cc1	-2	6.1	0.76	-5	.	-1.1	4.8
NC(=O)CN(Cc1ccccc1)S(=O)(=O)c1ccc2c(c1)OCCO2	-3	-1.6	0.67	6	i	5.8	1.3
O=C(COC(=O)CSc1ccc(F)cc1)NCC1CCCCC1	-15	2.6	0.73	5	i	-6.9	5.1
O=C1CC(N2CCC(c3nc4ccccc4s3)CC2)C(=O)N1Cc1ccccc1 (stereo unspecified)	4	1.0	0.69	.	.	2.5	5.5
O=C(Cc1ccc(F)cc1)NCc1cccnc1	-3	-1.0	0.71	-2	i	2.9	2.7
CCOC(=O)c1cccc(NC(=O)CSc2nc3cccnc3n2C)c1	-1	4.5	0.73	-9	.	0.9	1.8
O=C(Nc1cscc1S(=O)(=O)c1ccccc1)c1ccccc1Cl	7	-1.3	0.67	-24	i	-10	2.1
Cc1c(CCO)c(=O)[nH]n1S(=O)(=O)c1ccc(Cl)cc1Cl	-32	-1.5	0.66	0	i	0.8	1.8
COc1ccc(-c2sc3ccc(OC)cc3c2-c2ccc(O)cc2)cc1	26	-0.8	0.7	.	i	-1.9	-7.8
CC1CC(C)CN(C(=O)CSc2nnc(N)s2)C1 (stereo unspecified)	-6	0.9	0.68	95*	i	1.7	0.4
COCCNC(=O)CN(c1cccc(OC)c1)S(=O)(=O)c1ccc(C)cc1	8	-2.6	0.72	.	.	-6.6	1.1
CSCCC(NC(=O)c1ccc([N+](=O)[O-])cc1Cl)C(=O)OCC(=O)NCCCc1ccccc1 (stereo unspecified)	0	-0.1	0.69	-10	i	-2.9	2.1
CCC(C)NC(=O)CSc1nc2c(sc(=S)n2-c2cc(Cl)ccc2OC)c(=O)[nH]1 (stereo unspecified)	2	0.4	0.69	.	i	1.9	8.1
C=CCn1c(C)cc(C(=O)CN2C(=O)c3ccccc3S2(=O)=O)c1C	-8	1.6	0.71	6	.	0.2	1.7
COc1ccc(OC)c(S(=O)(=O)N(C)CC(=O)N2CCN(c3cccc(Cl)c3)CC2)c1	-5	-0.1	0.76	11	.	-5.7	0.9
O=C1CN(CC(=O)Nc2cccc(Cl)c2Cl)c2ccccc2N1	-42	35*	0.67	-15	i	3.0	-4.2

New compounds follow.
Structure	B2AR ag	HNF4A DNA FP	E coli growth	ALR inh	FGF22 binding	LANA-H2A inh	UCH37 DUB inh
CC(C)(C)C(=O)NC(NC(=O)C(C)(C)C)c1ccc([N+](=O)[O-])cc1	-5	0.4	0.63	-8	.	-2.0	0.0
COc1ccc(CNC(=O)C/C(C)=N/NC(=O)c2ccc(OC)cc2OC)cc1	12	-3.9	.	.	.	-1.8	.
COc1ccc(C(=O)Nc2cccc3c2CCCC3)c(OC)c1	-1	-5.2	0.72	3	i	0.0	0.7
COc1ccc(NC(=O)N(CCC(C)C)C(C)c2ccccn2)c(OC)c1 (stereo unspecified)	0	1.3	0.7	-8	i	-1.4	3.5
O=C(Nc1nccs1)c1cccc(NC(=O)C2CC2)c1	-11	-3.1	0.69	-10	.	5.3	5.8
Cc1ccc(S(=O)(=O)c2nc(NCc3ccc4c(c3)OCO4)sc2Cl)cc1	16	2.8	0.74	-2	.	0.5	1.8
COc1ccc(NCC(=O)N/N=C/c2cc([N+](=O)[O-])ccc2N2CCCC2)cc1	1	2.7	.	-6	i	1.6	.
COc1ccc(NS(=O)(=O)c2ccc(NS(=O)(=O)c3cccs3)cc2)c(OC)c1	-1	2.9	0.64	55	i	-1.6	0.7
CCCN(CCC)S(=O)(=O)c1cc2c(cc1Br)CCN2C(=O)CC	-7	2.2	0.69	.	i	.	2.6
CCOc1ccc(Br)cc1S(=O)(=O)Nc1nc(CN2CCOCC2)nc2sc(C)c(C)c12	7	4.8	0.71	-5	.	11	-0.7
Cc1ccc(CC(=O)Nc2nc3ccccc3[nH]2)cc1C	-4	2.1	0.74	-1	.	-4.1	-0.6
CC1CCN(C(=O)C2CCCCN2S(=O)(=O)c2cccc([N+](=O)[O-])c2)CC1 (stereo unspecified)	2	2.0	0.65	.	i	0.6	3.1
O=C(CSC1=NS(=O)(=O)c2cc(Cl)ccc2N1)NCCc1ccccc1	-3	1.5	0.7	-2	i	-1.4	2.1
Cc1ccc(S(=O)(=O)N2CCN(c3ccc(N4CCOCC4)nn3)CC2)cc1[N+](=O)[O-]	1	0.1	0.64	7	i	-1.7	3.1
CC[C@H](C)[C@@H]1NC(=O)[C@H]([C@@H](C)CC)NC(=O)[C@@H](CC(C)C)NC(=O)[C@H](Cc2ccccc2)NC(=O)[C@H](Cc2ccccc2)NC(=O)[C@@H]2CCCN2C(=O)[C@@H]2CCCN2C(=O)[C@H](C(C)C)NC(=O)[C@H](CC(C)C)NC1=O	1	3.1	.	2	i	2.5	0.0
COc1cc(C(=O)NCc2nnc(SCC(=O)Nc3nc4ccccc4s3)o2)cc(OC)c1OC	-5	-2.5	.	-1	i	1.0	.
Cc1nc2ccccc2cc1O	-3	1.8	0.77	.	.	2.2	i
Cc1cc(OCC(=O)N(C)Cc2ccccc2)ccc1Br	27	-0.5	0.7	17	i	0.1	4.8
O=C(CSc1nc(=O)n(CCCN2CCOCC2)c2c1CCC2)Nc1ccccc1F	-4	0.9	0.65	10	i	-2.8	4.2
Cc1cccc(NC2=NC(=S)N(c3cccc(C(=O)O)c3)C23CCCCC3)c1	1	2.3	0.71	3	i	8.1	3.2
COc1cc(Br)c(S(=O)(=O)Nc2c(C)n(C)n(-c3ccccc3)c2=O)cc1OC	1	0.5	0.65	-7	.	-1.3	3.4
CC[C@H](C)[C@H](NS(=O)(=O)c1ccc(C)cc1)C(=O)N1CCC(C(=O)N[C@@H](C)C(=O)O)CC1	4	3.2	0.69	0	.	16	0.5
CCNC(=S)Nc1ccc(Oc2ccccc2)cc1	-16	-6.1	0.72	4	.	1.2	1.0
CC(C)NC(=S)N/N=C/C1=CCC2CC1C2(C)C (stereo unspecified)	4	0.5	.	1	.	4.6	.
CN(CCCC(=O)Nc1ccncc1)S(=O)(=O)c1ccc(Cl)cc1	2	1.9	0.71	-8	.	0.4	3.2
COc1ccc(S(=O)(=O)N2CCOC2CNC(=O)C(=O)NCC(C)C)cc1OC (stereo unspecified)	5	-3.3	0.67	-12	i	0.4	0.8
COc1ccc(-c2cc(C(=O)Nc3ccc4c(c3)OCO4)no2)cc1OC	13	-4.1	0.68	.	i	-3.2	-7.3

Source: PubChem BioAssay (several laboratories)
